Calb FLC: affects C. albicans growth with fluconazole; C. albicans CaCi-2 (fluconazole-resistant clinical isolate) + fluconazole, Alamar Blue growth, 48 h; growth inhibition, % (test concentration not listed); hit rate 0.57% among 300,000;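 active = most replicates above 75%; inconclusive = exactly half above 75%; inactive = most below 75%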;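 note: all wells also contain fluconazole at 8 µg/ml as a sub-toxic cotreatment; 0% = median of DMSO wells and 100% = median of geldanamycin control wells; wells of about 8 µL received 7.5 nL stock; the first replicate is given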
HNF4A DNA FP: change in binding of human HNF4 alpha to DNA; P41235; activity change, % at 10 µM; hit rate 0.3% among 360,000; HNF4a-FITC DNA binding, fluorescence polarization, 1 h; in the data active = activity change above about 30%, passing the limit was not always enough;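 note: controls were the assay level and a saturating level of protein; the project sought stronger binding though the title names inhibitors; some compounds called inactive have numbers as strong as hits; positive values seem to mean higher polarization but the record does not say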
Vif TR-FRET: HIV-1 Vif–A3G interaction blockers – biochemical, TR-FRET, GST-Vif 1-94, biotin-A3G peptide, dose response retest, primary screen (AID 1117319) | hit rate 0.57% among 260,000 | TR-FRET GST-Vif / biotin-A3G peptide binding; higher % means a stronger effect; test concentration not given here; strong numbers were not always called active | one-dose inhibition, %; IC50 in µM for titrated hits;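 active = above the screen mean plus three standard deviations and confirmed in dose response; inconclusive = results disagree or hit not tested in dose response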;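 note: Vif residues 1-94 fused to GST binding biotinylated APOBEC3G peptide 110-148; 0% = full assay without inhibitor and 100% = GST in place of GST-Vif; retest series ran down from 100 µM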
Beta2AR agonist: activates human beta-2 adrenergic receptor causing internalization; P07550; Am2.2-beta2AR cells, FAP receptor internalization, flow cytometry; reference of the scale not given here; hit rate 0.43% among 340,000; response, % (no concentration beside the values);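 active = response above a set limit, near 3 SD of response in nonfluorescent compounds, cut at about 42% in these data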;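 note: stock transfer was 100 nL into about 11 µL; a reference agonist was the positive control; negative values mostly stem from fluorescent compounds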
Target sequence (P07550 whole entry, looked up): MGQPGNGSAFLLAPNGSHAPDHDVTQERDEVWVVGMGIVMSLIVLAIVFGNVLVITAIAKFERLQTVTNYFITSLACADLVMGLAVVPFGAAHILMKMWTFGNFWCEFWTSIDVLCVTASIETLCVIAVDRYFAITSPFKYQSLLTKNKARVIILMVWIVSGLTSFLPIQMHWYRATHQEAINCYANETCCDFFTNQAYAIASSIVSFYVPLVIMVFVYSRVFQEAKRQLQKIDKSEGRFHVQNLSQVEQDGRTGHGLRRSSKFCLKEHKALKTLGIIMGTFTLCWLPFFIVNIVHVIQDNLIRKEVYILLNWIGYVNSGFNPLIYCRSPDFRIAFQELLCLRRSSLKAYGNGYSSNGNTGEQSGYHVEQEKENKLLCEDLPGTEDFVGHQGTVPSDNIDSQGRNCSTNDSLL
LANA-H2B inh: blocks KSHV LANA binding to histone H2A/H2B; Q9QR71; cell-free LANA-H2A/H2B peptide, fluorescence polarization; inhibition, % (concentration not given with the values); hit rate 0.6% among 320,000; AID 2629; in the data active = inhibition mostly above about 10%, no sharp cut-off; inactive = mostly below about 6.7%;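 note: stock transfer was 7.5 nL into about 10 µL; 0% = median of vehicle wells and 100% = median of positive control wells; one replicate is shown; the record names a cut of 25% in any replicate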
ALR inh: blocks human ALR sulfhydryl oxidase activity; P55789; purified ALR, DTT oxidation, H2O2 HRP-luminol luminescence; inhibition, % (no concentration beside the values); hit rate 3.8% among 290,000;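 active = mean and each replicate at 75% or more; inconclusive = only one of the two met; inactive = neither met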;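 note: stock transfer was 7.5 nL into about 7.5 µL; 0% = neutral wells and 100% = wells with inactivated enzyme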
Target sequence (P55789 whole entry, looked up): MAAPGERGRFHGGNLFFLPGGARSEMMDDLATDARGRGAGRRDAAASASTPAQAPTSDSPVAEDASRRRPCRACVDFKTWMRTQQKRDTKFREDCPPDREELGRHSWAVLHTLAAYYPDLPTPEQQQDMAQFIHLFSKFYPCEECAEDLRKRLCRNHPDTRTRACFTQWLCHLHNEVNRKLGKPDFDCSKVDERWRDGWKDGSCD
RanGTP-Imp inh: inhibitors of RanGTP-importin-beta interaction, primary screen, biochemical, FRET, CFP-Ran, YFP-importin-beta, homogeneous; AID 2216; hit rate 1.1% among 300,000; inhibition, % (concentration not given with the values); cell-free CFP-Ran/YFP-importin-beta FRET ratio;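 active = most replicates above 15%; inconclusive = exactly half above 15%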;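 note: 0% = DMSO wells and 100% = Ran loaded with GDP instead of GTP; wells of about 40 µL received 100 nL stock; the first replicate is given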
* hit, by the source's call; ? = inconclusive; nt = not tested or not shown.

SMILES	Calb FLC	HNF4A DNA FP	Vif TR-FRET	Beta2AR agonist	LANA-H2B inh	ALR inh	RanGTP-Imp inh
O=C(COc1ccc(Cl)cc1)Nc1nnc(S(=O)(=O)N2CCCCCC2)s1	-3	0.3	nt	5	2.4	nt	2.7
O=C(CN1CCCC1=O)NC1C2CC3CC(C2)CC1C3 (stereo not given)	-15	0.0	-2%	-23	0.2	-7	-0.7
CCN(CC)CCN1C(=O)C(=O)/C(=C(/O)c2ccc(F)cc2)C1c1ccncc1 (stereo not given)	-4	-3.0	nt	1	-0.8	-17	0.8
O=S(=O)(Nc1cccc(-c2ccc(N3CCOCC3)nn2)c1)c1cc(Cl)ccc1Cl	-11	-0.3	-4%	17	1.4	-7	2.3
CC1(C)COC(c2cccn2Cc2ccccc2Cl)=N1	17	0.5	29%	7	-0.7	nt	0.2
Oc1ccc(Br)cc1/C=N/n1c(C2CCCCC2)n[nH]c1=S	6	-0.5	-8%	7	0.1	15	1.2
CC1CCN(C(=O)COC(=O)/C=C/c2ccc([N+](=O)[O-])cc2)CC1	nt	1.8	5%	5	-0.2	0	nt
O=C(C1CC(=O)N(c2ccc(F)cc2)C1)N1CCC(c2nc3ccccc3[nH]2)CC1 (stereo not given)	-7	0.7	4%	-5	nt	nt	5.6
O=C(O)C1CCCCC1C(=O)Nc1ccc(F)cc1F (stereo not given)	-5	0.2	0%	19	-2.0	-7	5.8
Cc1ccc2cc(C#N)c(NCc3ccccc3)nc2c1	-5	-2.3	nt	-1	2.1	0	-4.7

Laid out differently: results already given.
O=C(COc1ccc(Cl)cc1)Nc1nnc(S(=O)(=O)N2CCCCCC2)s1
  Calb FLC: -3	HNF4A DNA FP: 0.3	Vif TR-FRET: nt	Beta2AR agonist: 5	LANA-H2B inh: 2.4	ALR inh: nt	RanGTP-Imp inh: 2.7
CC1CCN(C(=O)COC(=O)/C=C/c2ccc([N+](=O)[O-])cc2)CC1
  Calb FLC: nt	HNF4A DNA FP: 1.8	Vif TR-FRET: 5%	Beta2AR agonist: 5	LANA-H2B inh: -0.2	ALR inh: 0	RanGTP-Imp inh: nt
Oc1ccc(Br)cc1/C=N/n1c(C2CCCCC2)n[nH]c1=S
  Calb FLC: 6	HNF4A DNA FP: -0.5	Vif TR-FRET: -8%	Beta2AR agonist: 7	LANA-H2B inh: 0.1	ALR inh: 15	RanGTP-Imp inh: 1.2
O=C(O)C1CCCCC1C(=O)Nc1ccc(F)cc1F (stereo not given)
  Calb FLC: -5	HNF4A DNA FP: 0.2	Vif TR-FRET: 0%	Beta2AR agonist: 19	LANA-H2B inh: -2.0	ALR inh: -7	RanGTP-Imp inh: 5.8

Next structures:
SMILES	Calb FLC	HNF4A DNA FP	Vif TR-FRET	Beta2AR agonist	LANA-H2B inh	ALR inh	RanGTP-Imp inh
O=C(Nc1cccc(NC(=O)c2cccs2)c1)c1ccc(Br)cc1	23	3.7	-3%	-3	4.1	-4	-3.0
O=C(CS(=O)CC(=O)Nc1cnc2ccccc2c1)Nc1ccc(Cl)cc1 (stereo not given)	1	3.4	nt	3	0.3	-3	1.7
O=C(O)C1CCCN1S(=O)(=O)c1cc(Cl)ccc1Cl (stereo not given)	-10	-0.5	1%	-6	-2.4	0	-3.9
COc1ccccc1-c1ccc(/C=C2\C=CC(=O)O2)o1	-8	94	?	1	-22	nt	-38
CCOC(=O)C(=CNc1cc(C)nn1-c1ccc(C)cc1)C(=O)OCC	4	1.6	-4%	-20	-0.1	4	5.2
O=C(Cc1csc(Nc2nc(=S)[nH]c3ccccc23)n1)NCc1ccc(Cl)cc1	6	1.3	4%	-7	4.3	-2	11
Fc1cccc(NC(=S)NNc2ccccc2)c1	-2	1.9	2%	4	-0.5	-4	0.0
CC(C(=O)Nc1ccccc1F)N1CCN(S(=O)(=O)c2ccc(C(F)(F)F)cc2)CC1 (stereo not given)	nt	-3.8	0%	10	nt	nt	nt
Cc1ccc(CNCC(O)(c2ccccc2)c2ccc(F)cc2)cc1 (stereo not given)	-16	0.7	4%	1	7.1	-2	?
CC(C)S(=O)(=O)c1csc(C(=O)NN)c1-n1cccc1	-11	-2.1	nt	3	-6.4	-3	-0.6
CC(C)Oc1ccc(S(=O)(=O)N2CCCCC2)cc1NC(=O)CN1C(=O)NC(C)(c2ccccc2)C1=O (stereo not given)	-3	-2.2	nt	4	-4.8	-2	-0.3
Cc1ccc(NC(=O)C2CCN(S(=O)(=O)c3c(C)n[nH]c3C)CC2)c(C)c1	-5	-0.1	nt	3	-5.2	-1	4.2
CNC(=O)c1nnn(Cc2ccccc2)c1NC(C)=O	-2	-0.1	-4%	-10	1.8	-2	-0.3
COCCCNC(=O)CCc1c(C)c2cc3c(C)coc3cc2oc1=O	-8	-6.2	-5%	-3	2.0	1	?
Cc1cc(Br)ccc1NC(=O)CN(C)C(=O)c1cc([N+](=O)[O-])ccc1N1CCOCC1	12	-2.1	5%	-3	2.6	-12	1.9
CCOC(=O)C1CCCN(c2c(NCCc3ccc(S(N)(=O)=O)cc3)c(=O)c2=O)C1 (stereo not given)	-5	0.6	9%	-4	1.5	-4	3.2
CCN1C(=O)S/C(=C/c2ccsc2)C1=O	1	0.9	27%	25	3.0	-6	0.2
CCc1ccc(C(=O)c2oc3nc(C)cc(C)c3c2N)cc1	-20	2.0	2%	-15	-0.9	8	-1.6
CC(NC(=O)C1CCCN(S(=O)(=O)c2cccs2)C1)c1ccccc1 (stereo not given)	4	1.4	8%	-1	-0.6	-6	-2.1
Cc1ccc(Oc2ncnc3sccc23)cc1	-6	2.8	nt	1	-5.8	-3	5.6
COc1ccc(S(=O)(=O)/C(C#N)=C/Nc2cccc(OC)c2)cc1	-1	0.9	-5%	0	1.4	-4	-3.7
O=C(NNS(=O)(=O)c1ccccc1Cl)C1COc2ccccc2O1 (stereo not given)	nt	0.0	nt	-12	-1.5	4	nt
Cn1c(NC(=O)CC2CCCCC2)cc(=O)n(C)c1=O	1	3.8	nt	-5	0.5	9	-3.7
O=C(CSc1nnc(NC(=O)c2ccccc2F)s1)NCC1CCCO1 (stereo not given)	6	-0.2	nt	7	3.4	-16	-1.9
C/C(=N\N=c1/scc(C)n1Cc1ccco1)c1cccc([N+](=O)[O-])c1	10	-3.9	21%	10	0.3	nt	-1.9
CSc1ccc(C(=O)N2CCc3ccc(NC(=O)c4ccccn4)cc3C2)cc1	-6	0.2	nt	2	3.9	-6	2.6
Cc1cc(C)c[n+](CC(=O)c2cc3ccccc3oc2=O)c1	3	2.0	8%	5	0.1	-14	5.0
COc1ccc(-n2nnnc2SCC#CCO)cc1	8	1.3	-4%	-1	-4.9	-14	1.7
CC(C)c1cc(NC(=O)CCl)on1	7	-1.3	nt	7	0.7	1	0.3
CCOCCCNC(=S)N1CCN(c2nc(-c3ccc(F)cc3)cs2)CC1	13	-3.5	nt	-1	2.9	nt	?
CCCn1c(CNc2ccc(Br)cc2)nc2ccccc21	-5	-2.8	-4%	8	0.9	62	2.3
C=CCOc1ccc(/C=C2\SC(=S)N(NS(=O)(=O)c3ccc(C)cc3)C2=O)cc1	88*	-7.0	nt	8	0.7	-6	-4.6
CCC(CC)C(=O)c1c[nH]c(C(=O)O)c1	-6	4.0	nt	1	0.0	-15	nt
COc1ccc(NC(=S)Nc2ncccc2C)cc1OC	8	1.8	-5%	3	-0.2	83*	-0.7
CC(C)(C)c1ccc(C(=O)NCC(=O)NCc2ccccn2)cc1	nt	0.5	19%	-5	0.5	-6	nt
CC(C)Oc1nc(-c2ccccc2Cl)nc2ccccc12	-5	0.4	16%	2	0.9	-2	-3.0
COc1cc2c(cc1OC)-c1cc(OCc3cccnc3)nc(=O)n1CC2	nt	5.7	-5%	10	nt	nt	nt
COc1ccc(Cc2nnc(SCC(=O)N3CCc4ccccc4C3)o2)cc1	-6	1.4	-6%	4	-7.2	-3	3.8
Oc1ccc(Br)cc1/C=N/Nc1nc(N2CCCCC2)nc(N2CCOCC2)n1	-3	nt	5%	nt	-2.9	-7	3.0
CC(Sc1nc2c(c(=O)[nH]1)CCCC2)C(=O)Nc1ccc(Br)cn1 (stereo not given)	1	-5.6	nt	-1	2.0	2	0.6
COC(=O)N1C(=O)[C@@](c2ccc(OC)cc2)(C(C)C)N1C(=O)OC	-2	2.9	nt	21	-3.1	43	0.7
CCN(CC)Cc1cc(C(C)=O)ccc1O	-3	2.1	1%	5	-2.7	nt	9.0
Cc1ccc(NC(=S)Nc2ccc3[nH]c(=O)[nH]c3c2)cc1C	6	-1.7	nt	2	3.0	90*	4.9
C/C(Cl)=C/Cn1c(SCc2ccc(Cl)cc2)nc2c1c(=O)[nH]c(=O)n2C	-28	3.5	7%	4	nt	nt	-0.6
Cc1cccc(-n2c(=O)c3c(C)c(C)sc3n(CC(N)=O)c2=O)c1	3	2.5	-7%	0	-1.9	nt	2.4
Cc1ccc(-c2c3c(=O)n(C)c(=O)n(C)c3cn2-n2cnnc2)cc1	-1	4.4	12%	3	-8.5	97*	-58
CC(C)C(OC(=O)c1cccs1)C(=O)NCc1ccccc1 (stereo not given)	-17	3.9	0%	2	-1.3	0	0.5
CC(=O)Nc1ccc(S(=O)(=O)NCC(=O)NNC(=O)COc2c(C)cccc2C)cc1	nt	-0.3	nt	-3	-0.6	0	nt
Cc1cccc(N2C(=O)C(Oc3ccc(Cl)cc3Cl)C2C(=O)O)c1C (stereo not given)	-5	1.6	1%	0	1.2	37	3.2
COc1cccc(C(CNC(=O)C(c2ccccc2)c2ccccc2)N(C)C)c1 (stereo not given)	0	0.0	nt	1	0.4	-19	1.4

Continuation:
SMILES	Calb FLC	HNF4A DNA FP	Vif TR-FRET	Beta2AR agonist	LANA-H2B inh	ALR inh	RanGTP-Imp inh
Cc1cccnc1NC(=O)Cn1nc([N+](=O)[O-])cc1C	2	-0.2	3%	-3	3.9	nt	0.0
O=C(NCc1cccc(C(F)(F)F)c1)C1CCN(c2ncccn2)CC1	-2	-1.2	4%	4	5.1	-4	-2.8
O=C(NN1C(=O)c2ccccc2C1=O)c1ccc2c(c1)C(=O)N(CC1CCCO1)C2=O (stereo not given)	-11	-0.4	10%	2	1.9	-7	1.3
CCOc1cccc(-c2cc(-c3n[nH]c(=S)n3CC)c3ccccc3n2)c1	69*	-0.3	24%	-8	1.6	13	1.2
O=C(N/C(=C\c1ccc([N+](=O)[O-])cc1)C(=O)N1CCOCC1)c1cccc(Br)c1	9	3.5	nt	3	-0.7	30	-0.7
CCCCN(C(=O)c1ccc(-c2ccc([N+](=O)[O-])cc2)o1)c1c(N)n(CCCC)c(=O)[nH]c1=O	nt	4.3	nt	5	0.3	-2	0.3
O=C(O)c1cccc2c1C(=O)c1ccc(-c3ccc(F)cc3F)cc1S2(=O)=O	nt	0.4	nt	-2	1.5	11	nt
O=C(N1CCOCC1)N(Cc1cccs1)C1CCCC1	0	1.1	-2%	5	4.2	-13	1.6
CCNC(=O)Nc1ccc(-n2nc(C)c(C(=O)OCC)c2C)nc1	5	0.2	7%	0	2.0	-17	-2.8
O=C(CN1C(=O)/C(=C/c2cccc(Br)c2)SC1=S)NC1=NCCS1	-11	14	8%	4	-0.4	-3	nt
CC(C)(C)NC(=O)CN(C(=O)CCC(=O)Nc1nccs1)c1ccc2c(c1)OCCO2	-8	3.2	nt	-1	-6.6	nt	1.7
COc1ccc(-n2c(=S)[nH]c3ncccc3c2=O)cc1	5	-2.0	nt	5	-7.6	-5	1.6
O=C1CSC(c2ccccc2)N1Cc1ccccc1 (stereo not given)	4	-1.7	-10%	0	1.6	nt	9.1

Source: PubChem (several laboratories)
